# Sa RN4220 lethal = S. aureus RN4220 growth inhibition | OD600, 16 h | inhibition, % (concentration not given with the values) | hit rate 0.33% among 330,000 | AID 1259311;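 active = z-score of -3 or lower and OD600 up to 0.18 on both plates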;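 note: plate controls were untreated cells for no effect and reference antibiotic for full effect; stock transfer was 100 nL into about 80 µL; one replicate is shown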
# Mtb hypoxia rep = Mtb hypoxia fluorescent reporter inhibition. fluorescence inhibition, % (no concentration beside the values). hit rate 0.1% among 300,000. M. tuberculosis hypoxia-regulated fluorescent reporter, fluorescence;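 active = 35 to 45% if threefold the growth effect, above 45% if 1.5-fold the growth effect; inactive = the rest, general growth blockers included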;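 note: wells of about 50 µL received 100 nL stock; 0% = vehicle wells and 100% = reference inhibitor wells; whole bacteria with a GFP reporter of the hypoxia response; strong numbers were not always called active; many hits fall short of the cut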
# ugtP null kill = kills S. aureus RN4220 lacking UgtP; growth inhibition, % (test concentration not listed); hit rate 0.54% among 330,000; S. aureus RN4220 ugtP deletion, OD600 growth, 16 h; some inactives read as strong as hits;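 active = z-score under -3 and OD600 up to 0.15 on both plates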;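 note: plate controls were untreated wells for no effect and antibiotic for full effect; wells of about 80 µL received 100 nL stock; the first replicate is given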
# Autofluor counter = compound fluorescence in toxin protease inhibitor counterscreen | compound autofluorescence counterscreen, microsphere flow cytometry; stronger effect = higher value | fluorescence intensity (no concentration beside the values) | hit rate 3.1% among 360,000 | AID 624483;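 active = at least 3 SD above the mean of all compounds, about 16000 in these data; inconclusive = too few beads counted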;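 note: 100 nL of 1 mM stock went into each well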
# PrP UTR inh = inhibition of PrP 5' UTR reporter expression. cell-based PrP 5' UTR mRNA reporter, plate reader. hit rate 0.35% among 340,000. inhibition, % (no concentration beside the values);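 active = every replicate at 50% or more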;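 note: 0 = median of the neutral control wells; tested in H4 reporter cells; numbers are from one replicate; inactives centre near -14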
# BJeLR viability = BJeLR cell viability loss; BJeLR (HRASV12) viability, CellTiter-Glo ATP luminescence, 48 h; reference of the scale not given here; inhibition, % (no concentration beside the values); hit rate 0.17% among 300,000; AID 1554;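 active = replicate mean above 50%; inconclusive = above 50% but judged a plate artefact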;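 note: 50 nL library stock added to about 25 µL; numbers are from one replicate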
# Mtb hypoxia rep growth = second read-out of Mtb hypoxia rep, no call of its own (marks repeat the call); growth inhibition, %; measured here: M. tuberculosis growth (absorbance);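 0% = vehicle and 100% = reference antibiotic; read after six days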
# Numbers without * were called inactive; ? = inconclusive; . = no result given.
nr	Molecule	Sa RN4220 lethal	Mtb hypoxia rep	Mtb hypoxia rep growth	ugtP null kill
1	Cc1nc2ccccc2c(=O)n1N=Cc1ccco1	5.9	-10	-3	4
2	CC(C)c1ccc(N2C(=O)CC(=O)NC2=O)cc1	1.0	4	8	11
3	O=C(CN(c1ccccc1)S(=O)(=O)c1ccc(Cl)cc1)Nc1cccnc1	6.4	19	2	-4
4	Cc1c(=O)n(OCc2ccccn2)c2ccccc2[n+]1[O-]	5.5	13	15	-1
5	O=C(NNC(=O)c1ccc(-c2ccccc2)cc1)Nc1ccccc1F	-0.8	1	0	3
6	NC(=O)CN1C(=O)C2C3C=CC(C3)C2C1=O (stereo unspecified)	3.0	7	1	0
7	O=C(NC(=S)Nc1ccc(N2CCOCC2)cc1)c1cccc(Cl)c1Cl	6.7	6	2	0
8	CCO[C@@H]1OC(C(=O)N2CCN(Cc3ccccc3)CC2)=C[C@H](C)[C@H]1CCCO	-12	11	8	-5
9	CCC(NC(=O)c1ccccc1NC(=O)c1ccco1)C(=O)NC1CCCCC1 (stereo unspecified)	.	.	.	.
10	CN(C)c1ccc(NC(=O)C=Cc2ccccc2Cl)cc1	5.4	7	9	-13
11	O=C(O)CCc1ccc(-c2ccc(F)cc2)n1NC(=O)c1ccco1	-1.1	.	.	-2
12	CCn1c(-c2ccc3[nH]c(C)c(C)c3c2)n[nH]c1=S	8.1	7	6	-13
13	CC(=O)C1C(=O)CC(C)(O)C(C(C)=O)C1c1ccc(N(C)C)cc1 (stereo unspecified)	-0.2	-3	2	-5
14	Cc1ccccc1C(=O)Nc1ccc(C(=O)O)cc1NC(=O)c1ccccc1C	-1.4	10	-3	-1
15	O=C(Cc1ccc(F)cc1)NN=Cc1ccc2c(c1)OCO2	4.5	7	-6	3

nr	Autofluor counter	PrP UTR inh	BJeLR viability
1	.	.	.
2	3951	-8	-16
3	5653	-14	-6
4	3190	-12	-6
5	?	-6	-3
6	3951	-6	18
7	6616	-17	-3
8	3763	-11	11
9	3195	-5	4
10	.	.	.
11	4787	-47	-2
12	9667	-34	1
13	5778	-19	-1
14	3531	-5	-5
15	.	.	.

# Nothing new here: entries from further up.
nr	Molecule	Sa RN4220 lethal	Mtb hypoxia rep	Mtb hypoxia rep growth	ugtP null kill
1	Cc1nc2ccccc2c(=O)n1N=Cc1ccco1	5.9	-10	-3	4
2	CC(C)c1ccc(N2C(=O)CC(=O)NC2=O)cc1	1.0	4	8	11
3	O=C(CN(c1ccccc1)S(=O)(=O)c1ccc(Cl)cc1)Nc1cccnc1	6.4	19	2	-4
4	Cc1c(=O)n(OCc2ccccn2)c2ccccc2[n+]1[O-]	5.5	13	15	-1

nr	Autofluor counter	PrP UTR inh	BJeLR viability
1	.	.	.
2	3951	-8	-16
3	5653	-14	-6
4	3190	-12	-6

# Later entries.
nr	Molecule	Sa RN4220 lethal	Mtb hypoxia rep	Mtb hypoxia rep growth	ugtP null kill
16	C/C(=N\N=C(N)N)c1ccc(Cl)c(Cl)c1	.	.	.	.
17	COc1ccccc1NC(=O)Cc1csc(NC(=S)Nc2ccc(C)cc2)n1	-4.0	7	3	-43
18	COc1cc(C=NNC(=O)CN2CC(c3ccccc3)CC2=O)ccc1OC(=O)N(C)C (stereo unspecified)	-2.6	3	-1	-1
19	O=C(COC(=O)c1ccc(Cl)nc1)Nc1ccc2ccccc2c1	2.0	4	10	1
20	Cc1cc(C)n(CC(O)COc2ccc(Cl)cc2)n1 (stereo unspecified)	0.8	10	1	8
21	CCc1ccc(OCC(=O)N(C)CCC#N)c(Br)c1	2.5	3	3	4
22	CCCCNC(=O)CSc1ccc(S(=O)(=O)N2CCOCC2)cn1	1.4	3	-17	4
23	COc1cccc(C2CC(c3cccs3)Nc3ncnn32)c1 (stereo unspecified)	17	-2	6	9
24	COc1ccc(-c2noc(COc3ccc(C)c(C)c3)n2)cc1OC	2.2	18	2	2
25	CC(=O)CSc1nnc(C(F)(F)F)n1C	1.2	-6	-6	3
26	COC(=O)c1ccc(CSc2n[nH]c(C)n2)o1	2.5	8	1	9
27	Cc1nn(Cc2c(Cl)cccc2Cl)c(C)c1N	-0.1	3	5	-1
28	C=C1CCN([C@H](C(=O)OCc2cccc(C)c2)C(C)C)S(=O)(=O)c2ccccc21	.	.	.	.
29	COc1ccc(CC(C)=NNC(=S)Nc2ccccc2)cc1	3.8	-5	9	6
30	CSc1ccc(S(=O)(=O)NCC(=O)OCC(=O)N2CCC(C)CC2)cc1[N+](=O)[O-]	2.6	5	4	-1

nr	Autofluor counter	PrP UTR inh	BJeLR viability
16	4063	-13	-13
17	16561*	-21	-8
18	.	.	.
19	5825	-21	.
20	3832	-24	-6
21	8159	-11	3
22	3918	-13	.
23	3268	-7	2
24	10304	-20	-12
25	6311	-19	0
26	8056	-20	8
27	3179	-11	-10
28	3299	0	-5
29	.	.	.
30	4200	-19	.

# More results follow:
nr	Molecule	Sa RN4220 lethal	Mtb hypoxia rep	Mtb hypoxia rep growth	ugtP null kill
31	Cc1cc(C(=O)CN2C(=O)NC(c3ccccc3)(c3ccccc3)C2=O)c(C)n1Cc1ccccc1	-16	11	-3	-19
32	CCOC(CNC(=O)C(=O)Nc1cc2c3c(c1)CCC(=O)N3CCC2)OCC	-1.4	-5	2	-2
33	CN1CCN(CCCNC(=O)c2cc3c(-c4ccc(Cl)cc4)nn(C)c3s2)CC1	-6.5	.	.	7
34	O=C(COc1ccc(Cl)cc1)NCc1nnc(SCC(=O)N2CCCCC2)o1	-0.8	.	.	0
35	CN(C(=O)C1CCCCN1S(=O)(=O)c1ccccc1)c1ccccc1 (stereo unspecified)	4.5	19	8	-1
36	COc1ccc(N=N/C(C(C)=O)=C(/C)O)cc1	10	8	4	2
37	CN(C)C(N)=NCCCC(N)C(=O)O (stereo unspecified)	-1.5	-4	8	-3
38	O=C(NC1CCCCC1)C(c1ccco1)N(Cc1cccs1)C(=O)Cn1nnc2ccccc21 (stereo unspecified)	-4.6	-14	-6	-15
39	COCC(=O)Nc1ccc(N2CCCC2)c(S(=O)(=O)Nc2ccccc2OC)c1	5.0	1	-3	3
40	COc1ccccc1C(=O)COC(=O)CN1C(=O)C2CC=CCC2C1=O (stereo unspecified)	1.3	9	11	1
41	COC(=O)C1=C(C(=O)OC)C2N(C)c3ccccc3[C@@]23CC(C(=O)OC)N(C(=O)c2cc(C)oc2C)C3=N1 (stereo partly specified)	5.0	7	0	5
42	Cc1ccc(S(=O)(=O)NCC(=O)NN=Cc2ccccc2O)cc1	1.9	-11	-2	1
43	Nc1nc(SCc2cccc([N+](=O)[O-])c2)n[nH]1	-0.4	0	-3	3
44	CCCOc1ccc(C=NNC(=O)CSCc2ccc([N+](=O)[O-])cc2)cc1OCC	3.5	11	9	-3
45	NC(=O)CC(NC(=O)Cc1ccc(Cl)cc1)c1ccc(NC2CCCCC2)c([N+](=O)[O-])c1 (stereo unspecified)	5.0	6	8	1

nr	Autofluor counter	PrP UTR inh	BJeLR viability
31	2960	-11	-1
32	5720	-9	4
33	3908	-10	4
34	3054	-27	3
35	4405	-9	.
36	5858	-12	2
37	.	.	.
38	10713	-26	.
39	4222	-14	.
40	5170	-6	-5
41	.	.	.
42	.	.	.
43	4200	-19	2
44	.	.	.
45	4023	-9	-9

# New compounds follow.
nr	Molecule	Sa RN4220 lethal	Mtb hypoxia rep	Mtb hypoxia rep growth	ugtP null kill
46	C[n+]1cn(Cc2ccc(C#N)cc2)c2ccccc21	4.2	2	2	5
47	COc1ccccc1N1CC(C(=O)Nc2ccccc2N2CCCC2)CC1=O (stereo unspecified)	3.4	-3	14	4
48	CCc1nc2ccccc2c(NC(=O)CN2CC(C)CC(C)C2)c1C (stereo unspecified)	-1.4	6	3	0
49	CN1CCN(C(=O)/C=C/c2ccc([N+](=O)[O-])cc2)CC1	2.9	6	3	5
50	Cc1ccc(C(=O)NC2CCN(S(=O)(=O)c3ccc(C)cc3)CC2)cc1	2.8	9	9	4
51	Cn1cc(Cl)c(C(=O)OCC(=O)Nc2ccc(S(N)(=O)=O)cc2)n1	-3.0	0	2	2
52	O=C(O)c1cccc(S(=O)(=O)Nc2ccc(S(=O)(=O)N3CCOCC3)cc2)c1	7.6	0	6	6
53	CCn1c(/C(C#N)=N/O)nc2ccccc21	.	.	.	.
54	CC(O)CCC(=O)NNC(=S)Nc1ccccc1 (stereo unspecified)	-0.6	6	14	3
55	O=C(C1CCN(S(=O)(=O)c2ccc(Br)s2)CC1)N1CCN(c2ccccc2)CC1	-0.7	8	5	0
56	COc1ccc(NC(=O)CCC(=O)NN=Cc2ccc([N+](=O)[O-])s2)cc1	16	1	-8	43
57	CCc1cccc(C)c1NC(=O)C1CC=CCC1C(=O)O (stereo unspecified)	8.1	6	2	3
58	CC1(C)CC(=O)C(C=NCCN2CCN(C3CC(=O)N(c4cccc(Br)c4)C3=O)CC2)=C(O)C1 (stereo unspecified)	-3.2	-2	5	1
59	O=C(c1ccc(Cl)c(Cl)c1)N1CCN(c2ccccn2)CC1	2.3	13	0	7
60	CN(C)c1ccc(N=Cc2nc(-c3ccccc3)oc2OC(=O)c2ccccc2)cc1	-3.3	-4	-3	4

nr	Autofluor counter	PrP UTR inh	BJeLR viability
46	3791	-19	-4
47	5621	4	-19
48	4865	-16	0
49	2526	-11	-7
50	3510	9	7
51	3027	-11	-18
52	3367	-12	-8
53	2555	-30	2
54	4280	-11	-4
55	4207	-21	2
56	.	.	.
57	2021	-19	-3
58	4432	10	2
59	.	-16	-1
60	2521	-88	-3

# Further compounds follow.
nr	Molecule	Sa RN4220 lethal	Mtb hypoxia rep	Mtb hypoxia rep growth	ugtP null kill
61	CCN(CC(=O)NC1CCS(=O)(=O)C1)S(=O)(=O)c1ccc(C)c(C)c1 (stereo unspecified)	0.6	-2	-5	0
62	CCN(CC)C(=O)c1ccc(NC(=S)NC(=O)CCc2ccccc2)cc1	-4.2	.	.	-8
63	CCOC(=O)c1c(C)[nH]c(C)c1C(=O)COC(=O)/C=C/c1ccc(OC(F)F)cc1	5.1	10	4	-6
64	OCCn1c(SCCOc2ccccc2)nc2ccccc21	2.2	5	8	3
65	O=C(O)CCCCCNC(=O)c1ccncc1	-3.5	-4	-5	-9
66	O=C(C1CCCN(Cc2ccncc2)C1)N1CCc2ccccc2C1 (stereo unspecified)	2.6	.	.	1
67	c1ccc(Cn2ncc3c(NCc4ccco4)ncnc32)cc1	-4.4	10	21	5
68	O=C(CN(Cc1ccccc1F)S(=O)(=O)c1ccc(Cl)cc1)NCCCO	1.5	.	.	10
69	COc1ccc(Cl)cc1NC(=S)NC(=O)c1ccco1	8.4	-14	6	0
70	NS(=O)(=O)c1ccc(NC(=S)NC2CCCCCC2)cc1	2.2	10	7	1
71	c1nc(NCCN2CCOCC2)c2sc3nc(N4CCOCC4)c4c(c3c2n1)CCC4	3.2	1	4	-3
72	CCc1cccc(NC(=O)CCS(=O)(=O)c2cccc3nonc23)c1	0.2	13	12	-1
73	O=C(Nc1ccc(O)cc1)c1ccc2c(c1)C(=O)N(N1C(=O)c3ccccc3C1=O)C2=O	2.4	12	3	3
74	CCCCn1c(=NC(C)=O)c(C#N)cc2c(=O)n3cccc(C)c3nc21	3.7	9	3	-5
75	O=C(Cc1ccc(Br)cc1)NN=Cc1cccnc1	0.6	1	-1	4
76	CCOc1ccc(Cn2c(=O)oc3ccc(C)cc32)cc1OC	8.3	10	7	3
77	NC(=O)NC(Cc1ccccc1)C(=O)NCCCSc1ccccc1 (stereo unspecified)	2.7	-3	-6	8
78	O=C(COC(=O)c1ccco1)NCc1ccc2c(c1)OCO2	2.2	2	11	4

nr	Autofluor counter	PrP UTR inh	BJeLR viability
61	2121	-11	-2
62	6475	-11	1
63	2206	2	0
64	7375	-31	9
65	19428*	-13	3
66	3067	-11	3
67	8617	-3	8
68	5861	3	-1
69	8478	-20	.
70	1870	4	1
71	6135	-20	-3
72	6660	-23	0
73	5775	-2	-4
74	3842	-10	-3
75	.	.	.
76	3327	-8	0
77	3187	-1	-11
78	4929	-22	12

# Screening results (PubChem)

# Not a hit list; overall some 4% were active at least once.
